Compound activity (PubChem)
Six1-Eya2 inh = Six1/Eya2 interaction inhibition. Q15475+O00167. activity change, % (concentration not given with the values). AlphaScreen GST-Six1/His-Eya2 binding, biochemical; stronger effect = lower value; control for the full effect not named in the record. hit rate 0.56% among 360,000; in the data active = activity change below about -65%; inconclusive = about -30% to -65%; inactive = above about -30%; also: % is scaled to controls: 0 for no effect and ±100 for the full control effect
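Six1/Eya2 binding was read as AlphaScreen signal after compounds were pinned into GST-Six1 plus His-tagged Eya2 (5X stock 250/500 nM) in pH 8.0 Tris/NaCl/TCEP buffer, beads added, then incubated 1 h, 37 C, dark.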
D2 ag = activates the human D2 dopamine receptor | P14416 | DiscoveRx PathHunter D2 beta-arrestin, luminescence, 90 min; 100% = 57 uM dopamine signal | activation, % (concentration not given with the values) | hit rate 0.084% among 360,000 | AID 624465; in the data active = activation above about 40%; inconclusive = about 15% to 40%; inactive = below about 15%; also: compound concentration not given in the record; the text of the record calls up to 30% inactive
Target sequence (P14416 whole entry, looked up): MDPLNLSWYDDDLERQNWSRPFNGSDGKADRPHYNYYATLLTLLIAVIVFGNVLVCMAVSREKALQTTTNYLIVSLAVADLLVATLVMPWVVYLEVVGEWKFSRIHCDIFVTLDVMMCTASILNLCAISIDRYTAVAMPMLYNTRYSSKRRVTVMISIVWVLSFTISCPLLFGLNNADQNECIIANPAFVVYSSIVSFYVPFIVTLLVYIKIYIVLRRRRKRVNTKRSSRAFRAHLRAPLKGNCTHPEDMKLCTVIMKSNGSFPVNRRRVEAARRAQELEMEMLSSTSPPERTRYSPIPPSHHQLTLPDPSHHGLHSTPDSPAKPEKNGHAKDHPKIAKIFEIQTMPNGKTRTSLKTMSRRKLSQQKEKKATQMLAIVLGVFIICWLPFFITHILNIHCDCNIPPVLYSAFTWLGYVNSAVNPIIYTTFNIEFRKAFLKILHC
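DiscoveRx PathHunter D2 beta-arrestin cells (2,100/well) attached overnight, then compound-stimulated 90 min at 37 C in HBSS/10 mM HEPES/0.1% Tween-20 buffer; beta-galactosidase complementation read by luminescence after 1 h at ambient temperature. Dopamine 57 uM final (EC100) as control.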
gsp antagonist = antagonists of gsp mutant (McCune-Albright syndrome); Potency, µM (titrated, usually from 76.9 µM), without a hit: at the highest dose activity change, negative = inhibition, most hits filed as inhibitors; AID 624288; hit rate 0.4% among 340,000; gsp-mutant cells, cAMP HTRF, 30 min; control for the full effect not named in the record; active = falling curve of any shape with a large fitted effect; inconclusive = falling curve, mostly with a smaller effect; inactive = flat or rising curve; cell line not stated here;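 also: intracellular cAMP measured with PDE inhibitor Ro 20-1724 present during compound exposure; potency is read from the fitted curve at half-maximal effect; % is scaled to controls: 0 for no effect and ±100 for the full control effect; nearly all actives have a fitted effect of over 65% in size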
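Measurement of cellular cAMP by homogeneous time-resolved fluorescence following a 30 min compound exposure at 37C. The PDE inhibitor […] was present throughout; the assay buffer was DPBS with 0.05% BSA and 0.005% Tween 20.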
gsp ag = agonists of gsp mutant (McCune-Albright syndrome); gsp mutant cells, cAMP HTRF, 30 min; control for the full effect not named in the record; Potency, µM (top dose mostly 76.9 µM), inactives show at the highest dose activation (cAMP increase), actives largely listed as activators; hit rate 0.13% among 340,000; active = well fitted activation curve with a large enough effect; inconclusive = small, poorly fitted or top-dose-only effect, or another doubt; inactive = no such curve, though single readings can be large or run the other way; cell line not stated here;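 also: phosphodiesterase inhibitor Ro 20-1724 added with compounds to block cAMP breakdown; potency is read from the fitted curve at half-maximal effect; nearly all actives have a fitted effect of over 60% in size; about a fifth of the inactives were tested at one dose only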
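Cells stably selected in G418 were plated at 2000/well, grown 16-24 hr, then given compounds in DMSO with the PDE inhibitor […] (300 uM solution added) for 30 min at 37C; cAMP was read by HTRF.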
D2 PAM = positive allosteric modulators of human D2 dopamine receptor | AID 624464 | potentiation, % (concentration not given with the values) | DiscoveRx D2 beta-arrestin cells, luminescence, 90 min; 100% = 57 uM dopamine signal | P14416 | hit rate 0.23% among 360,000; active = potentiation of 50% or more; inconclusive = 30% to 50%; inactive = 30% or less;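 also: compound concentration not given in the record; tested on top of an EC20 dose of dopamine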
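PathHunter beta-arrestin assay in DiscoveRx D2 cells. Compounds were added with an EC20 of dopamine (50 nM final) for 90 min at 37 deg C. Luminescence was read 1 h after detection reagent, with 57 uM dopamine as the EC100 control.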
CtBP-E1A blk = inhibitors of CtBP/E1A interaction | AlphaScreen GST-E1A/His-CtBP binding, 1536-well; stronger effect = lower value; control for the full effect not named in the record | activity change, % (concentration not given with the values) | hit rate 0.49% among 340,000; in the data active means activity change below about -65%; inconclusive means about -30% to -65%; inactive means above about -30%; also: % is scaled to controls: 0 for no effect and ±100 for the full control effect
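Steps: dispense buffer (Tris pH 8.0, NaCl 300 mM, TCEP 1 mM, BSA, Tween 20); add 5X protein mix (GST-E1A, His-CtBP, 125 nM each); pin 23 nL compound; 2 h at 37 °C, dark; add 5X beads (50 ug/mL); 1 h; read.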
* hit, by the source's call; ? = inconclusive; · = not tested or not shown; [ ] = remark or other dose.

SMILES	Six1-Eya2 inh	D2 ag	gsp antagonist	gsp ag	D2 PAM	CtBP-E1A blk
O=S1(=O)CCN(Cc2ccc(Cl)cc2)CC1	-6.1	-3.1	-0.9%	-0.8%	-6.8	2.0
COCOCCn1cc(CN2CCS(=O)(=O)N(Cc3ccc(-c4ccc(OC)nc4)cc3)C(C(C)C)C2=O)nn1 (stereo not given)	-0.7	-0.6	·	?	·	-0.7
CC(C)NC(=O)c1ccc(N2CCOCC2)nc1	4.1	-0.6	1.1%	-16.0%	5.4	5.0
Cc1ccc(C(=O)NCCc2cc3ccc(C)c(C)c3[nH]c2=O)cc1[N+](=O)[O-]	19.5	1.2	-10.0%	7.8%	0.2	10.3
Cc1ccc(S(=O)(=O)C2(C(=O)N(C)C3CCCCC3)CC2)cc1	6.3	-3.0	-2.7%	10.0%	-6.6	15.9
CC(C)Nc1nc2n(c(=O)n1)CCN2C(C)C	-21.5	-4.5	-11.6%	18.3%	-13.1	5.9
COc1ccc(S(=O)(=O)n2cccc2)cc1	-1.3	-5.3	5.0%	10.1%	3.1	·
O=C(Nc1cnn(Cc2ccc(F)cc2)c1)c1cnccn1	2.1	-2.0	1.2%	?	-2.4	6.7
COc1ccccc1NC(=O)N1CCC(c2nnc(SCC(N)=O)n2C)CC1	14.9	-1.1	14.1%	-0.5%	0.2	0.0
O=C(O)CCC(=O)NNc1nc2ccccc2nc1-c1ccccc1	-1.7	-7.1	-6.7%	7.7%[15.4 µM]	-3.1	-13.1
N#Cc1c(NC(=O)c2cc(-n3cnnc3)ccc2Cl)sc2c1CCCC2	2.8	-2.6	-7.0%[15.4 µM]	-34.7%[inhibitor]	-16.9	-10.3
O=C(Nc1cccc(NC(=O)c2cc([N+](=O)[O-])ccc2Cl)n1)c1cc([N+](=O)[O-])ccc1Cl	2.7	?	-16.7%	34.5%	12.7	·
COc1cc(OC)cc(C(=O)NNC(=O)C2CCCC2)c1	2.0	-1.4	15.8%	8.4%	-4.3	9.6
COc1ccccc1NC(=O)CN1CCN(CC(=O)Nc2ccc(S(N)(=O)=O)cc2)CC1	7.2	-5.1	-3.5%	15.9%	-9.9	·
c1ccc2nc(-c3nc4ccccc4o3)ccc2c1	7.0	-3.5	-18.7%	18.5%	1.8	14.5
CCOC(=O)C1(CCOc2ccccc2)CCN(Cc2cc(OC)ccc2OC)CC1	-18.3	4.0	5.9%	28.7%	-78.3	·
CC(=O)c1cnc2cc(C)nn2c1C	12.0	-1.9	9.5%	-1.5%	-15.3	2.0
Cc1cc(=O)nc2c3ccccc3n(CC(=O)Nc3ccccc3Br)n12	-1.6	-3.9	-12.3%	1.6%	-0.5	-20.5
CC(C)CSc1ccc(S(=O)(=O)NCC(=O)O)cc1[N+](=O)[O-]	-1.2	-1.2	·	17.7%[15.4 µM]	-14.7	10.8
Cn1c(C(=O)NCC2CCCO2)cc2oc3ccccc3c21 (stereo not given)	-21.3	6.3	7.0%	-23.9%	-5.9	-7.8
CCOC(=O)COc1cnc2ccccc2n1	17.3	-3.2	4.3%	12.8%[15.4 µM]	-8.8	0.6
COc1ccc(NC(=O)CSC2=NN3CCCC(=O)N=C3S2)c(OC)c1	10.0	7.0	-10.0%	15.7%	-6.7	-10.0
Cc1ccc(S(=O)(=O)NC(=O)Nc2ncc3c(n2)CC(c2ccco2)CC3=O)cc1 (stereo not given)	-1.8	-2.4	-2.7%	-45.6%[inhibitor]	-2.4	-6.4
CCCCNC(=O)C1(NC(=O)Nc2ccc(C)cc2)CCCCC1	5.9	-2.1	-14.8%	7.7%[15.4 µM]	-1.2	·
O=C(CCNC(=O)c1ccccc1Cl)NCC12CC3CC(CC(C3)C1)C2	6.3	-5.9	-0.2%	-34.5%[inhibitor]	-6.7	13.0

Profiles as entered above. Order of screens: Six1-Eya2 inh | D2 ag | gsp antagonist | gsp ag | D2 PAM | CtBP-E1A blk
COc1ccc(S(=O)(=O)n2cccc2)cc1 in the list: -1.3 | -5.3 | 5.0% | 10.1% | 3.1 | ·
Cc1cc(=O)nc2c3ccccc3n(CC(=O)Nc3ccccc3Br)n12 in the list: -1.6 | -3.9 | -12.3% | 1.6% | -0.5 | -20.5
CC(C)Nc1nc2n(c(=O)n1)CCN2C(C)C in the list: -21.5 | -4.5 | -11.6% | 18.3% | -13.1 | 5.9

The list goes on:
SMILES	Six1-Eya2 inh	D2 ag	gsp antagonist	gsp ag	D2 PAM	CtBP-E1A blk
Cc1ccc(/C=C/C(=O)Nc2nn[nH]n2)o1	-9.6	-3.5	7.3%	-3.3%	-10.8	-0.5
CCc1nc(Nc2ccc(OC)c(OC)c2)c2nnn(Cc3ccccc3Cl)c2n1	-15.0	6.6	-38.2%	38.3%	-5.9	-10.8
Cc1ccc(C(=O)Nc2cc(S(=O)(=O)N3CCOCC3)ccc2N2CCCC2)cc1	-12.2	-2.9	-17.4%	25.2%	-1.8	·
Cc1cc2oc(C(=O)NC3CCS(=O)(=O)C3)cc(=O)c2cc1C (stereo not given)	-0.3	-2.8	-15.8%	-1.2%	-17.8	5.5
CCOC(=O)N1CCN(C(=O)CN(c2ccc(C)c(C)c2)S(=O)(=O)c2ccccc2)CC1	1.7	-2.1	-27.4%	9.4%	-7.0	0.9
Cc1cccc(C)c1NC(=O)COC(=O)[C@@H]1CCCN1C(=O)c1cccs1	6.8	-0.2	0.7%	27.9%	-3.5	-1.5
O=C1CC(C2CCCO2)C(=O)N1c1cccc(Cl)c1 (stereo not given)	3.0	-2.4	11.8%	-1.3%	-19.1	-1.4
Cc1cc(C)c(NC(=O)CSc2nnc(CNC(=O)c3ccccc3F)o2)c(C)c1	2.3	0.2	-5.8%	5.9%	-8.3	4.7
Cc1ccc(NC(=O)CSc2nnc(-c3cccnc3)s2)cc1	-1.4	-1.7	-6.5%	?	18.4	-2.7
CCN1CCN(/C=N/c2nc3c(s2)CCCC3)CC1	-3.7	-2.2	-3.7%	?	-6.1	0.8
CCOc1ccc2[nH]c(=O)c(CN(Cc3cccs3)Cc3nnnn3C(C)(C)C)cc2c1	-1.6	0.2	-13.4%	-42.8%[inhibitor]	-15.6	4.9
CC(NCC(=O)Nc1ccccc1C(=O)NC1CC1)c1ccc(Cl)cc1 (stereo not given)	-17.9	-4.6	·	?	-17.0	20.6
Cc1ccc(S(=O)(=O)N(C)C)cc1NC(=O)C(C)N(C)CCOc1ccc(Cl)cc1 (stereo not given)	-1.5	-1.9	-22.0%	-1.6%	-16.7	-0.9
O=C(Cn1nc(-c2ccccc2)ccc1=O)Nc1ccc(-n2cnnn2)cc1	0.1	-0.5	44.7µM*	2.6%[15.4 µM]	-1.9	4.5
N=c1ncn(CC(O)CN2CCOCC2)c2nc(N3CCOCC3)[nH]c12 (stereo not given)	5.2	0.3	10.1%	8.1%	-5.4	5.6
Cc1c(C#N)c2ccccc2n1CC(=O)NCCc1c[nH]c2ccccc12	-5.4	7.8	-3.6%	-27.9%	-4.6	0.6
CC(OC(=O)c1ccccc1)C(=O)NCCC1=CCCCC1 (stereo not given)	-0.6	-1.3	7.0%	-48.1%[inhibitor]	-4.4	12.1
NS(=O)(=O)c1ccc(NC(=O)/C=C/c2ccc3c(c2)OCO3)cc1	-3.6	-2.2	5.6%	-3.5%[15.4 µM]	-1.6	2.9
CCOc1ccc(C(=O)NCCc2ccccc2)cc1	2.8	0.4	-0.9%	-0.9%	-0.6	3.0
CCc1ccc(N=C2NC(=O)/C(=C/c3cc(Br)c(OCC(=O)O)c(OC)c3)S2)cc1	-8.9	-3.4	-6.1%	-21.5%	-0.8	2.3
Cc1c(C(=O)Nc2ccccn2)oc2c(Cl)cccc12	7.8	-4.8	-5.0%	1.3%[15.4 µM]	-14.0	-2.2
Cc1cccc(OCC(=O)Nc2ccccc2C(=O)N2CCOCC2)c1	-4.2	-1.4	10.6%	?	1.0	-14.9
COC(=O)c1ccc(NC(=O)C2C3C=CC(O3)C2C(=O)O)cc1 (stereo not given)	8.3	-1.9	-2.7%	-63.2%[inhibitor]	0.6	0.7
COc1cc(C)ccc1OCC(=O)OCC(=O)c1cc(C)n(CC2CCCO2)c1C (stereo not given)	-12.7	2.1	15.5%	14.1%	-2.5	-6.8
COc1cccc(C(=O)NCc2ccco2)c1OC	-0.3	0.5	3.3%	-11.6%	-0.8	13.7
Carrying on:
SMILES	Six1-Eya2 inh	D2 ag	gsp antagonist	gsp ag	D2 PAM	CtBP-E1A blk
O=C(Nc1ccc(S(=O)(=O)N2CCOCC2)cc1)C1CCCCC1	-0.4	-1.2	9.6%	-38.0%[inhibitor]	-8.4	-1.6
COc1cc(C2C(C(C)=O)=C(O)C(=O)N2CCN(C)C)ccc1O (stereo not given)	-0.5	-4.7	-3.7%	-25.2%	-12.2	6.2
CCC(C)(C)NC(=O)C(c1cccn1C)N(Cc1ccc(C)cc1)C(=O)Cn1nnc2ccccc21 (stereo not given)	-0.6	-0.2	3.3%	0.6%	-17.0	-2.7
NNC(=O)c1cccc(S(=O)(=O)Nc2cc(Cl)ccc2Cl)c1	5.3	-18.2	-14.3%	2.3%[15.4 µM]	-0.8	2.4
CCOc1ccc(C(=S)N2CCN(C)CC2)cc1	-4.1	-0.7	12.7%	15.6%[15.4 µM]	-15.8	3.7
Cc1ccc(NC(=O)c2c(F)cccc2Cl)cc1NS(C)(=O)=O	1.8	-3.7	12.9%	-11.8%[15.4 µM]	-3.8	8.4
OC1(c2ccccc2)C/C(=N\n2cnnc2)C=C1c1ccccc1 (stereo not given)	-0.5	-3.9	-8.8%	-36.2%[inhibitor]	-5.0	8.8
COc1ccc(C(=O)Oc2c(C)occc2=O)cc1OC	21.2	0.5	3.4%	17.5%	-10.8	18.8
CC(C)C(=O)N1CCN(c2ccccc2NC(=O)c2ccc(C#N)cc2F)CC1	8.1	-3.0	-76.9%	34.6%[15.4 µM]	-2.4	-2.4
Cc1cc2ccc(C)c(C)c2nc1SCC#N	18.3	-2.5	-14.6%	7.0%	-10.1	12.9
CC1=C(C)CC(C(=O)NC2CCN(C(C)C)CC2)C(C(=O)O)C1 (stereo not given)	-15.4	2.0	7.9%	-1.4%	-8.4	-11.5
CCCOC(=O)C1=C(C)NC(=O)NC1c1cc2c(cc1Br)OCO2 (stereo not given)	0.0	-2.8	1.7%	-14.1%[15.4 µM]	-1.6	0.0
CC(=O)C[C@H](O)CC(=O)[C@@H]1OC(=O)CCCCCCCCc2ccccc21	1.5	0.4	-11.4%	-1.9%	1.8	0.9
COc1cc2c(CCNC(C)=O)c[nH]c2cc1O	-6.1	-0.7	0.5%	·	15.1	2.1
CCOC(=O)c1c(NC(=O)CSc2ncnc3ccccc23)sc(C)c1C	-0.6	-3.0	9.7%	-20.1%[15.4 µM]	-6.7	-5.2
CCCC(C)NC(=O)CN(c1ccc2c(c1)OCCO2)S(=O)(=O)c1ccccc1 (stereo not given)	-5.6	-0.5	-0.1%	-0.3%	-3.2	8.4

Compounds as they come; about 1.4% have a hit in one of these screens.
